# Sfp PPTase inh: qHTS Assay for Inhibitors of Bacillus subtilis Sfp phosphopantetheinyl transferase (PPTase); 310,000 tested, 3.5% active; Biochemical Sfp PPTase activity, qHTS; Potency, µM, inactives show max response, negative = inhibition, actives largely listed as inhibitors; active = well fitted inhibition curve with a large enough effect; inconclusive = small, poorly fitted or top-dose-only effect, or another doubt; inactive = no such curve, though single readings can be large or run the other way;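 note: the enzyme is Sfp with the accession as filed and its product quenches rhodamine fluorescence; potency is the fitted concentration of half-maximal effect; 0% = enzyme reaction without inhibitor and -100% = no enzyme wells; top concentration of the series not given in the record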
#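 Fluorescence-quenching assay with 15 nM Sfp, 5 uM rhodamine-CoA and 12.5 uM BHQ-2-labelled ybbR peptide in pH 7.6 Hepes/MgCl2 buffer. Enzyme was pre-incubated with compound for 15 min at room temperature. Rate was taken from the 30-min fluorescence change (525/598 nm).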
# TRPV1 PAM: HTS Assay for Compounds that Act as Potentiators of the Vanilloid Receptor 1 | AID 540277, 2011 | TRPV1-expressing cells, Fluo-8 calcium influx, capsaicin EC20 potentiation; host cell line not named in the record; control for the full effect not named in the record | 320,000 tested, 0.02% active | potentiation, % at 8.33 µM; active means potentiation above 80%; inconclusive means 30% to 80%; inactive means below 30%; note: 0% is about no effect
# Target sequence (Q8NER1 whole entry, looked up): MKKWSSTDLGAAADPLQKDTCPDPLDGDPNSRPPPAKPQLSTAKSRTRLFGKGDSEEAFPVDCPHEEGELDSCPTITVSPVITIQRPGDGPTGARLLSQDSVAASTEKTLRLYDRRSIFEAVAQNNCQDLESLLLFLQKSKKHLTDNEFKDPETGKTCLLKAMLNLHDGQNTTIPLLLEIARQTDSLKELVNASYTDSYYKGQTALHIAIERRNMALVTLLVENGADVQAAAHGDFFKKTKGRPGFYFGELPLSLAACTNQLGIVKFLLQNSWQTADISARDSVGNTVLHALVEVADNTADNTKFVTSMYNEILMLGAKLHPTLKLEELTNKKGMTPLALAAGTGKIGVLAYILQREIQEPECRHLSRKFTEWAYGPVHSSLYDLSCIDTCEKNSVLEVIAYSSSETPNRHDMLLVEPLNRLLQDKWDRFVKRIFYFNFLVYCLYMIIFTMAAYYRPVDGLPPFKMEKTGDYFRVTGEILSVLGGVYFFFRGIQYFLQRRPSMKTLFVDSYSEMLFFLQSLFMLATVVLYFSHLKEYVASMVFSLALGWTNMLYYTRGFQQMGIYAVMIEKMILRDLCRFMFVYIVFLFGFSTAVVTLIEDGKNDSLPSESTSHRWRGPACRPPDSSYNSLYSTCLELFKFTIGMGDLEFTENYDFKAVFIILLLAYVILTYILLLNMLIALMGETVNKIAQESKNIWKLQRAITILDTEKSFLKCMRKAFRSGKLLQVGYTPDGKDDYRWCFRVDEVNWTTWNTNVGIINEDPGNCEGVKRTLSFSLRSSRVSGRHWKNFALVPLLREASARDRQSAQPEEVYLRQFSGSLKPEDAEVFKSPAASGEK
#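 Fluo-8 calcium influx in TRPV1-expressing cells, kinetic read (ex 480/em 520 nm). Compound added and read 3 min for agonist activity, followed by capsaicin at EC20 final and 2 min further read for enhancement.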
# Menin-MLL FL inh: qHTS Assay for Inhibitors Targeting the Menin-MLL Interaction in MLL Related Leukemias: Competition With Fluorescein Labeled MLL-derived Peptide. Fluorescence polarization, fluorescein-MLL peptide displacement from menin. FP activity change, % at 61.4 µM. 290,000 tested, under 10 active; inconclusive = falling polarisation curve, or a change in total fluorescence; inactive = total fluorescence flat and polarisation flat or rising; no compound was filed as active; the % refers to the polarisation; negative = inhibition;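 note: % of control where 0% means no effect; inhibitors lower the polarisation; unlabelled MLL peptide was the positive control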
# gsp agonist: qHTS for Agonist of gsp, the Etiologic Mutation Responsible for Fibrous Dysplasia/McCune-Albright Syndrome: qHTS; gsp mutant cells, cAMP HTRF, 30 min; control for the full effect not named in the record; Potency, µM (doses to about 76.9 µM), for inactives: at the highest dose activation (cAMP increase), hits mostly activators; 340,000 tested, 0.13% active; active = well fitted activation curve with a large enough effect; inconclusive = small, poorly fitted or top-dose-only effect, or another doubt; inactive = no such curve, though single readings can be large or run the other way; cell line not stated here;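 note: phosphodiesterase inhibitor Ro 20-1724 added with compounds to block cAMP breakdown; potency is the fitted concentration of half-maximal effect; nearly all actives have a fitted effect of over 60% in size; about a fifth of the inactives were tested at one dose only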
#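 Cells stably selected in G418 were plated at 2000/well, grown 16-24 hr, then given compounds in DMSO with the PDE inhibitor […] (300 uM solution added) for 30 min at 37C; cAMP was read by HTRF.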
# ClpP mod: qHTS Assay for Activators of ClpP; ATP-dependent Clp protease proteolytic subunit (Bacillus subtilis (strain 168)), P80244; purified B. subtilis ClpP, FRET peptide cleavage, 20 min; Potency, µM (series often up to 57.5 µM), inactives show at the top dose activity change, negative = active; 340,000 tested, 1.9% active; AID 651965, 2013; active = well fitted falling curve with a large enough effect; inconclusive = small, poorly fitted or top-dose-only effect; inactive = no such curve, though single readings can be large or run the other way; note: potency is the fitted concentration of half-maximal effect; the source files actives as falling curves though it sought activators and does not explain the sign; nearly all actives have a fitted effect of over 65% in size; many hits overshoot -100%
# Target sequence (P80244 whole entry, looked up): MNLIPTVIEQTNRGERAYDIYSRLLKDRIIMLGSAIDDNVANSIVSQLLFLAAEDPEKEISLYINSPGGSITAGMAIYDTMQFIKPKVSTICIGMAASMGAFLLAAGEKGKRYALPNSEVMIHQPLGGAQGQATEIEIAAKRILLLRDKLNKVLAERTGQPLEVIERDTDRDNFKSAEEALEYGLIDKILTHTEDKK
#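 ClpP 10 microg/mL final, pH 8 Tris/KCl buffer with BSA, glycerol, Tween-20; compound pinned in; FRET-FV substrate; RT 20 min; Ex320/Em430; ΔFRET vs ADEP 5.8 microM, DMSO, no enzyme.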
# gsp antag: qHTS for Antagonists of gsp, the Etiologic Mutation Responsible for Fibrous Dysplasia/McCune-Albright Syndrome: qHTS | gsp-mutant cells, cAMP HTRF, 30 min; control for the full effect not named in the record | Potency, µM (titrated, usually from 76.9 µM), without a hit: top-dose activity change, negative = inhibition, usual class: inhibitors | 340,000 tested, 0.4% active | AID 624288, 2012; active = falling curve of any shape with a large fitted effect; inconclusive = falling curve, mostly with a smaller effect; inactive = flat or rising curve; cell line not stated here;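 note: intracellular cAMP measured with PDE inhibitor Ro 20-1724 present during compound exposure; potency is the fitted concentration of half-maximal effect; % is set by controls: 0 for no effect and ±100 for the full control effect; nearly all actives have a fitted effect of over 65% in size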
#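 G418-selected cells were plated in DMEM/10% FBS for 16-24 h at 37C, then treated with compounds plus the PDE inhibitor […] (300 uM solution added) for 30 min at 37C. Intracellular cAMP was measured by HTRF after 30 min lysis at room temperature.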
# CtBP-E1A inh: qHTS Assay for Inhibitors of the CtBP/E1A Interaction; CtBP / adenovirus E1A interaction (AlphaScreen); AID 651724, 2012; 340,000 tested, 0.49% active; activity change, % (concentration not given with the values); AlphaScreen GST-E1A/His-CtBP binding, 1536-well; stronger effect = lower value; control for the full effect not named in the record; in the data active means activity change below about -65%; inconclusive means about -30% to -65%; inactive means above about -30%; note: % is set by controls: 0 for no effect and ±100 for the full control effect
#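 Protein mix (5X: 125 nM each GST-E1A, His-CtBP) was incubated with pinned compound 2 h at 37 deg C in dark, in 50 mM Tris pH 8.0 buffer with 300 mM NaCl. Glutathione donor and nickel acceptor beads followed; AlphaScreen signal read after 1 h.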
# Active calls of the source: *; ? = inconclusive; · = no result given; [ ] = remark or other dose. Random draw from the library, and some 5.3% of all compounds hit somewhere here.
SMILES,Sfp PPTase inh,TRPV1 PAM,Menin-MLL FL inh,gsp agonist,ClpP mod,gsp antag,CtBP-E1A inh
Cc1nn(-c2ccccc2)nc1C(=O)Nc1ccc2[nH]ncc2c1,-1.9%,-23.9,3.3,-8.5%,1.1%,-12.8%,·
CCCc1cc(C(=O)NCc2ccco2)no1,16.5%,·,0.4,7.4%,1.5%,6.7%,-1.5
CC(=O)NNc1[nH]c2c(c(=O)c1[N+](=O)[O-])c(=O)n(C)c(=O)n2C,12.7%,-5.4,-2.2,?,2.8%,3.5%,0.9
O=C(CNCc1ccccc1)Nc1ccc(Oc2ccccc2)cc1,6.1%,-3.5,-2.5,-9.7%[15.4 µM],·,-4.3%,-8.4
O=C(C1CCN(S(=O)(=O)c2ccccc2)CC1)N1CCN(Cc2ccc3c(c2)OCO3)CC1,2.9%,-8.4,-0.3,-14.2%,-1.4%,-27.2%,1.1
O=c1[nH]c(N2CCN(Cc3ccccc3)CC2)nc2c1CCC2,-7.3%,-2.0,-2.3,13.5%[15.4 µM],·,-5.4%,-13.0
CC(=O)Nc1ccc(C(=O)OCC(=O)c2ccc(S(=O)(=O)N3CCCCC3)cc2)cc1,·,-0.7,·,-3.4%,-3.6%,-13.0%,-1.4
CCC(C)C(=O)Nc1nnc(SCC(=O)Nc2ccccc2F)s1 (centres undefined),8.0%,24.4,6.5,-5.3%,0.1%,15.7%,7.7
FC(F)(F)c1cc(NCc2cccs2)n2ncnc2n1,12.9%,-13.0,-0.5,-0.3%,0.4%,7.6%,1.4
O=C(CCn1c(=O)oc2ccccc21)NCc1cccs1,16.2%,28.3,0.0,1.0%,1.2%,-5.8%,23.3
COC(=O)[C@@H](NC(=O)Nc1ccc2c(c1)OCCO2)C(C)C,12.2%,4.2,1.6,-23.7%,0.2%,3.9%,-1.3
CCS(=O)CCSc1nc2ccccc2s1 (centres undefined),-12.2%,-24.5,2.7,34.9%,0.5%,8.9%,9.8
CNC(=O)c1sccc1S(=O)(=O)Cc1c(Cl)cccc1Cl,5.4%,0.2,0.6,18.2%,0.8%,3.8%,5.3
CCN(c1ccccc1)S(=O)(=O)c1ccc(Cl)c(C(=O)N(CC2CCCO2)C2CCS(=O)(=O)C2)c1 (centres undefined),17.8%,-2.5,-0.4,-4.8%[15.4 µM],·,·,6.4
O=C(Nc1nc(-c2ccc(S(=O)(=O)N3CCCCCC3)cc2)cs1)c1ccccc1,5.7%,-5.0,-0.7,-5.2%,-13.2%,-2.4%,-25.0
COc1ccc(NC(=O)Cc2cccs2)c(OC)c1,5.0%,-18.4,0.4,-17.8%,-0.8%,13.9%,-0.7
COc1ccccc1N(C(=O)c1snc(C(N)=O)c1N)C(C(=O)NC1CCCC1)c1ccc(N(C)C)cc1 (centres undefined),-9.8%,-2.0,-9.4,-6.6%[15.4 µM],·,-7.0%,1.0
Cc1c(C(=O)Nc2cccc(N(C)S(C)(=O)=O)c2)cccc1[N+](=O)[O-],-5.5%,7.3,2.9,10.1%,0.1%,11.8%,5.5
CC(=O)c1cccc(NC(=O)c2ccc3ccccc3c2)c1,10.6%,-2.9,-2.9,-0.9%,-0.6%,-10.4%,0.5
C=CCN=C1CC(C)(C)CC(=O)/C1=C(/O)CCC(=O)OC,20.0%,7.8,5.1,12.5%,-0.3%,12.9%,8.1
COCCCNC(=O)c1ccc2c(c1)nc(C)n2-c1cccc(C)c1,14.1%,-23.6,7.2,0.1%,-3.2%,11.1%,10.2
O=C(CSc1nnc2ccccn12)NC(=O)c1ccccc1Cl,·,·,·,-3.2%,4.5%,7.2%,-0.9
COc1ccc(C(=O)c2sc(Nc3ccc(NC(C)=O)cc3)nc2C)cc1,-15.4%,?,0.8,-16.1%,0.5%,-14.0%,0.4
CC(C)(C)C(=O)Nc1cc2c3c(c1)CCC(=O)N3CCC2,25.9%,-8.1,1.4,4.9%,0.0%,1.1%,·
NS(=O)(=O)c1ccc(CCNC(=O)c2ccc3nc4ccc(Cl)cc4c(=O)n3c2)cc1,?,3.6,-1.5,-38.9%[inhibitor],3.6%,?,·
Cc1ccc(N2C(=O)CC(NCC3CCCO3)C2=O)cc1 (centres undefined),-1.0%,4.6,-2.2,-0.4%,0.8%,4.9%,8.2
CCCCCCn1c(SCCN2CCOCC2)nc2c1c(=O)[nH]c(=O)n2C,-6.2%,-4.5,-2.8,16.0%,-0.3%,-0.2%,-0.2
C=CCn1c(=N)c(C#N)cc2c(=O)n3ccccc3nc21,17.0%,-11.6,-0.6,?,?,1.6%,8.1
Cc1ccc(-c2csc(/C(C#N)=C/Nc3ccc4c(c3)OCCO4)n2)cc1,7.4%,12.2,-0.8,-25.4%,1.1%,-6.5%,·
Oc1ccccc1-c1cncn1Cc1ccccc1,14.2%,3.9,0.4,-8.9%[15.4 µM],-1.1%,-13.8%,-1.1
CCCN(CC1CC1)C(=O)CSc1nnc(-c2ccco2)n1N,-14.6%,0.3,9.6,·,·,·,·
CCOC(=O)c1c(NC(=S)NC(=O)c2cnn(CC)c2)sc2c1CCC(C)C2 (centres undefined),-4.8%,4.8,1.5,-1.9%,0.2%,8.0%,9.8
Cc1cccnc1NC(=S)NCc1ccco1,15.8µM*,-6.9,6.9,?,-1.1%,10.1%,-5.7
Cc1nn(C)c(C)c1S(=O)(=O)NCCc1ccc(Cl)cc1,24.1%,-5.2,4.6,?,·,8.4%,5.7
CCn1c(C)c2c([n+]1CC)CC(C)(C)CC2=O,-9.9%,1.1,2.6,-14.1%,-0.2%,2.6%,5.7
COc1ccccc1-c1cn[nH]c1-c1ccc(O)cc1O,12.0%,4.4,0.1,-38.6%[inhibitor],-11.0%,3.4%,-1.5
CCOCCn1ccc2c(OCC(=O)Nc3ccccc3OC)cccc2c1=O,·,-6.9,·,11.9%[15.4 µM],·,?,?
C[C@@H]1CN([C@@H](C)CO)S(=O)(=O)c2ccc(Br)cc2O[C@@H]1CN(C)Cc1ccccn1,·,·,·,-20.4%,-0.5%,·,-0.6
c1ccc(CCc2nn3c(Cn4cnc5ccccc54)nnc3s2)cc1,10µM*,0.0,12.3,-13.9%,-3.5%,-22.8%,-1.5
c1cnc(Oc2ccc3oc4ccccc4c3c2)nc1,4.3%,11.4,2.4,-32.0%[inhibitor],-1.1%,-0.6%,-1.9
O=C(c1ccc(Cl)c([N+](=O)[O-])c1)N1CCN(Cc2ccc3c(c2)OCO3)CC1,17.8%,-8.6,-3.6,-26.9%[15.4 µM],·,5.3%,-24.0
C=CCC[C@@H](Cc1ccc(F)cc1)C(=O)OC[C@H](C)NC(=O)[C@@H](CC=C)CC(=O)N(CCO)Cc1ccccc1,·,·,·,·,1.9%,-27.9%,0.4
CCOC(=O)c1c(NC(=O)CN2CCN(C(=O)c3ccco3)CC2)sc(C(N)=O)c1C,-2.0%,1.1,-1.6,-12.4%,-0.7%,-18.8%,·
Cc1ccc(CNC(=O)C(=O)NCC2OCCN2C(=O)c2cccs2)cc1 (centres undefined),3.1%,28.3,-0.3,-14.9%,-2.2%,13.1%,9.3
C[C@@H]1CN([C@@H](C)CO)C(=O)c2cc(NC(=O)C3CCCCC3)ccc2O[C@@H](C)CCCCO[C@H]1CN(C)S(=O)(=O)c1ccc(Cl)cc1,·,·,·,1.3%,-18.8%,·,-6.7
CCOC(=O)CS(=O)(=O)c1ccc2ccccc2c1,10.3%,21.4,5.7,-5.5%,-1.6%,?,6.1
O=C(NC(=S)Nc1ccccc1[N+](=O)[O-])c1ccccc1Cl,-22.5%,-10.3,5.7,6.7%[15.4 µM],·,-2.0%,-14.2
O=C(NCc1nnc(SCC(=O)N2CCCC2)o1)c1ccccc1,12.0%,7.4,2.6,16.6%,0.9%,-3.5%,5.1
CCOC(=O)CN1C(=O)C(Sc2n[nH]c(-c3ccc(C)cc3)n2)CCc2ccccc21 (centres undefined),8.7%,1.5,4.9,11.2%,0.4%,-30.2%,-7.1
O=C(Nc1cccc(-n2cnnn2)c1)c1ccccc1Br,-2.1%,-3.2,-0.9,12.9%,0.3%,-2.9%,-24.7
COc1cc(OC)cc(-c2n[nH]c(=S)n2-c2ccc3c(c2)OCO3)c1,?,-0.6,3.6,7.08µM*,-5.7%,-14.9%,5.5
Cc1ccccc1CN1C(=O)c2ccccc2Sc2ccc(C(=O)NCCN3CCOCC3)cc21,-1.5%,-10.2,0.2,-19.9%,-0.2%,-2.4%,-8.8
CCCCC/C=C/C1=CC(=O)C[C@H](c2ccc(Cl)cc2)C1,·,-11.0,·,·,-0.8%,3.6%,11.3
CSc1nn(CCc2ccncc2)c(=S)s1,50.1µM*,-9.6,7.4,?,-0.1%,-4.8%,-0.5
Cc1cc(C(=O)CN2C(=O)NC3(CCCCCC3)C2=O)c(C)n1C,·,-8.3,·,1.9%[15.4 µM],-8.8%,-4.3%,-1.2
CC(C)CN(/C=N/c1sc2c(c1C#N)CCCCC2)CC(C)C,6.8%,6.6,3.0,21.8%,-1.9%,-12.0%,·
O=C(/C=C/Nc1ccccc1)c1ccc(Oc2ncccn2)cc1,10.6%,6.9,2.7,-71.8%[inhibitor],-0.7%,-0.6%,5.4
O=C(O)/C=C/c1ccc(-c2cccc(C(F)(F)F)c2)o1,3.2%,0.6,7.8,?,4.1%,-19.1%,2.8

# Screening results as filed in PubChem BioAssay.
